Source: PubChem BioAssay (ICCB-Longwood Screening Facility, Harvard Medical School)
Sa helicase inh: inhibitors of S. aureus replicative helicase, primary screen, biochemical, fluorescence unwinding readout. replicative DNA helicase (DnaC/DnaB), Staphylococcus aureus. purified S. aureus helicase, fluorescence unwinding assay; about half of the hits fall short of the stated cut. inhibition, %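 (tested at about 80 µM)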. 0.05% of 120,000 active. AID 485395, 2010;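 active means both duplicates at 50% or more, or one of them with a favoured structure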;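 further: 0% = mean of negative control wells and 100% = mean of positive control wells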
MgrA DNA FP: S. aureus MgrA activity modulators, primary screen, biochemical, S. aureus Newman, fluorescence polarization; MgrA-DNA binding; inhibition, %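 (about 10 µg/mL by stock and volumes)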; 0.13% of 84,000 active;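 active means above 50% in either of two replicates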;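 further: 0% = protein plus DNA without compound and 100% = DNA alone without protein; higher means less MgrA bound to DNA so lower polarization; one replicate is shown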
Starred values were filed as active, the others as inactive; / = not tested or not shown. Some of the compounds tested; rates above refer to the full screens.

| MgrA DNA FP | Sa helicase inh | SMILES |
| --- | --- | --- |
| / | 10 | CCCCc1nn2c(=O)cc(CSc3nnc(NC(=O)c4ccco4)s3)nc2s1 |
| -1.7 | -4 | O=C(C1=C(O)C(=O)N(Cc2ccccc2)C1c1ccco1)c1ccco1 (configuration not stated) |
| -12 | 11 | CCN(CC)C(=O)C1CCN(Cc2ccc(Br)cc2)CC1 |
| 0.6 | / | Cc1cc(Oc2ccc(C(F)(F)F)cc2[N+](=O)[O-])c2c(Cl)ccc(C)c2n1 |
| 2.0 | 4 | O=C(COc1ccc(C2Nc3cccc4cccc(c34)N2)cc1)Nc1ccccc1 |
| / | 15 | Cc1cc(C(F)(F)F)nc(/N=C(\N)Nc2ccc(Cl)cc2)n1 |
| / | 4 | Brc1ccc(-c2csc(N/N=C/c3ccco3)n2)cc1 |
| / | -5 | O=C(COc1ccc2ccc(=O)oc2c1)Nc1ccc2c(c1)OCCCO2 |
| / | 2 | CCCN1CCCc2cc(CN(CCCN3CCOCC3)C(=O)Nc3ccccc3)ccc21 |
| / | 0 | C=CCNC(=O)c1ccc(Cl)c(S(C)(=O)=O)c1 |
| / | -1 | O=C(CSc1nnc(-c2ccc3c(=O)n4c(nc3c2)CCCCC4)o1)C12CC3CC(CC(C3)C1)C2 |
| / | -16 | Cc1cc2n(n1)C(c1cc(C(C)(C)C)c(O)cc1O)Nc1c(C)cccc1-2 (configuration not stated) |
| -6.7 | / | O=C(O)C12CC3CC(C1)CC(c1ccc([N+](=O)[O-])cc1)(C3)C2 |
| -0.9 | / | CCOC(=O)NC(=S)c1ccc[nH]1 |
| -4.7 | 17 | CCN1CN=C(Nc2nc(C)c3cc(C)ccc3n2)NC1 |
| -1.0 | 8 | CCC(C)NS(=O)(=O)c1cccs1 (configuration not stated) |
| 0.4 | 20 | CCn1c(=O)c2cc(C(=O)N(Cc3ccccc3)C(C)C)sc2c2ccccc21 |
| / | 9 | c1ccc(CC2CNc3ccccc3CN2)cc1 (configuration not stated) |
| 6.5 | -16 | O=C(O)c1cc(/C=N/n2cnnc2)c2c(c1)COCO2 |
| / | -2 | N#CCC(=O)NCc1ccc(Cl)cc1 |
| -0.4 | / | Cc1nn(-c2ccccc2)nc1C(=O)N(C)c1nnc(C(F)(F)F)s1 |
| / | 24 | CCOc1cc2c(cc1CNC(=O)C1CC1)OC(C)C2 (configuration not stated) |
| / | 2 | N#CCON1C(=O)c2ccccc2C1=O |
| -1.1 | 17 | CC(C)C(c1nnnn1C1CCCC1)N1CCN(C(=O)c2ccco2)CC1 (configuration not stated) |
| 0.3 | -21 | O=C(COC(=O)Cc1ccc(Cl)cc1Cl)NC1CC1 |
| / | 1 | CCOC(=O)Cn1ccc2cc(S(=O)(=O)N3CCCC3)ccc21 |
| 0.0 | / | COC(=O)c1ccc(N=Cc2nc(-c3ccccc3Br)oc2O)cc1 |
| 0.1 | 10 | CCN(CC)Cc1cc(C(=O)O)oc1C(C)(C)C |
| / | -24 | COC1=C(OC)C2(C=CC1=O)CC(C)(C)N=C2SC (configuration not stated) |
| / | -8 | Cc1ccc(S(=O)(=O)N(C)c2ccc(OCC(=O)OCC(N)=O)cc2)cc1 |
| -2.6 | / | O=C1CCC(c2ccc(Cl)cc2)=NN1 |
| / | -10 | CCOC(=O)c1ccc2nc(/N=C/NOC(=O)c3cccs3)sc2c1 |
| / | -5 | Cc1ccc2cccc(OCC(N)=O)c2n1 |
| / | -15 | Cc1cc(NC(=O)CCOc2ccccc2)no1 |
| / | -9 | CN(CCOc1ccccc1Cl)Cc1ccccc1 |
| / | 15 | Cn1c(=O)c(C(=O)N2CCN(Cc3ccccc3)CC2)cc2cccnc21 |
| -0.8 | 5 | CCC(C)(C)C(=O)Nc1cc(C)cc(C)c1 |
| 4.2 | 18 | Cc1ccccc1-c1nnc2n1C(C)(C)Cc1ccccc1-2 |
| -0.2 | 7 | CC1Cc2ccccc2N1C(=O)CSc1nnc2n1C(C)(C)Cc1ccccc1-2 (configuration not stated) |
| 3.7 | 17 | CC(c1ccccc1)n1c(CCn2ncc3ccccc3c2=O)n[nH]c1=S (configuration not stated) |
| 3.1 | / | O=C(CN1C(=O)c2ccccc2C1=O)c1ccccc1 |
| 9.1 | / | COc1ccc(C=C2C(=O)NC(=O)NC2=O)cc1Oc1ccc([N+](=O)[O-])cc1[N+](=O)[O-] |
| / | 3 | Cc1cc2[nH]c(=O)c(=O)[nH]c2cc1S(=O)(=O)N(CC(C)C)CC(C)C |
| -0.6 | -3 | CC(C)CC(Nc1ncnc2sc3c(c12)CCC3)C(=O)O (configuration not stated) |
| / | -1 | c1ccc(-c2csc3ncnc(Sc4nnnn4-c4ccccc4)c23)cc1 |
| 5.3 | / | CCCCc1c(O)c2ccccc2n(CCCC)c1=O |
| 17 | 10 | CC(C)NC(=O)c1cc2c(s1)-c1ccccc1SC2 |
| / | 4 | N#Cc1cnn(-c2ncnc3sc(-c4ccccc4)cc23)c1N |
| -2.6 | 9 | COc1ccc2c(c1)c(C(=O)N1CCN(C)CC1)c(C)n2-c1ccccc1 |
| 1.7 | / | COc1ccc(NC(=O)c2ccc3ncccc3c2)cc1 |

Other structures follow:
| MgrA DNA FP | Sa helicase inh | SMILES |
| --- | --- | --- |
| 0.3 | -5 | COC(=O)c1ccc2c(c1)NC(=O)CO2 |
| 1.4 | 5 | CCN1C(=O)c2ccccc2Sc2ccc(NC(=O)N3CCc4ccccc43)cc21 |
| -2.7 | / | CCOc1ccc(N(/C=C2\Sc3ccccc3C2=O)C(=O)c2cccc(Cl)c2)cc1 |
| / | -19 | O=C(CCC1CCCCC1)NC1=NCCS1 |
| / | 11 | COc1ccc(/C(N)=N/O)cc1O |
| -1.4 | / | Cc1ccc(S(=O)(=O)CCSc2ccccc2)cc1 |
| -2.0 | / | Clc1ccc(C2=NCCc3sccc32)cc1 |
| / | 10 | N/C(COc1ccccc1Cl)=N\O |
| -0.2 | -14 | Cc1ccc2nc(-c3cccc(NC(=O)C4CCCCC4)c3)oc2c1 |
| / | -32 | Cn1cnc2c(=O)oc3ccc(S(=O)(=O)NCCc4ccccc4)cc3c21 |
| 3.2 | 8 | CS(=O)(=O)c1ccc2nc(NC(=O)Nc3ccccc3F)sc2c1 |
| 0.4 | 16 | CCOC(=O)c1cnc2ccccc2c1NCCCN(C)C |
| 3.6 | 7 | CCOc1ccccc1CNc1ncnc2c1nc1n2CCCCC1 |
| / | -3 | C/C(=C/C(=O)O)C(=O)Nc1sc2c(c1C#N)CCCC2 |
| 0.2 | / | COc1ccc2c(c1)CCc1sc(N)nc1-2 |
| / | -2 | Cc1nc2cc(S(=O)(=O)N3CCC(C(=O)NCc4ccoc4)CC3)ccc2n1C1CCCC1 |
| / | 3 | CCOC(=O)c1c(C)[nH]c(C)c1S(=O)(=O)NCC(=O)Nc1nccs1 |
| 1.3 | -16 | CN1CCN(c2nc(NCC3CCCO3)c3ccccc3n2)CC1 (configuration not stated) |
| 1.2 | 6 | CCOC(=O)c1cc(C)n(CC2CCC(C(=O)NCc3ccccc3)CC2)c1C (configuration not stated) |
| 4.9 | / | COc1ccccc1Nc1snc2sc(C(=O)c3ccc(C)cc3)c(N)c12 |
| / | -11 | O=C(N(c1ccccn1)c1ccccn1)C12CC3CC(CC(C3)C1)C2 |
| / | 24 | Cc1cc(C)cc(NC(=O)NC2CCN(c3nc(C)cc(C)n3)CC2)c1 |
| -0.6 | / | CCOc1cc(-c2ccccc2)[nH]c(=S)n1 |
| / | 23 | CCOC(=O)N1CCc2c(sc(NC(=O)c3ccc(S(=O)(=O)N(C)C)cc3)c2C#N)C1 |
| -1.6 | -1 | O=C(Nc1ccccc1C(=O)Nc1ccccc1)c1ccc(Cl)cc1 |
| 2.4 | / | O=[N+]([O-])c1ccc(Sc2ccccc2)c([N+](=O)[O-])c1 |
| / | 3 | CCC(C)C(NCc1cccc(Br)c1)C(=O)O (configuration not stated) |
| -0.9 | / | COc1cc(O)oc1C=Nc1ccc(C(F)(F)F)cc1 |
| / | -5 | COc1ccc(NC(=O)CSC2=NC(=O)CC(C)=N2)cc1 |
| 1.5 | 3 | CN1CC(C(=O)Nc2ccc3c4c(cccc24)CC3)CC1=O (configuration not stated) |
| / | 20 | CSc1n[nH]c(=O)n1-c1cccc(Cl)c1 |
| / | -2 | O=C(NC1CCCC1)C1CCN(C(=O)c2cc3sccc3n2Cc2ccc(F)cc2)CC1 |
| -0.6 | 15 | O=C(Cn1c(=O)c(C(F)(F)F)nc2ccccc21)N1CCc2ccccc21 |
| -2.1 | 0 | CSc1nc2ccccc2n1-c1ccccc1 |
| / | 21 | Cc1ccc(C(c2c(O)[nH]c(=S)[nH]c2=O)N2CCC(C)CC2)cc1 (configuration not stated) |
| 0.7 | -10 | Cc1cccc(NCc2cn3ccccc3n2)c1 |
| / | -20 | CC(C)OC(=O)CSC1=C(C#N)C(c2ccccc2Cl)CC(=O)N1 (configuration not stated) |
| 11 | -13 | N#Cc1c(-c2ccccc2Cl)c(C#N)c2nc3ccccc3n2c1N |
| 8.0 | -8 | N#Cc1c(NC(=O)c2ccco2)sc2c1CCCC2 |
| 1.5 | 5 | c1ccc(-c2nc(N3CCCCCC3)c3ccccc3n2)cc1 |
| / | 12 | O=C(c1cn(-c2ccccc2)nc1-c1cccs1)N1CCN(C2CCS(=O)(=O)C2)CC1 (configuration not stated) |
| 0.6 | 3 | Cc1nc2cc(C(=O)O)ccc2n1C |
| 0.3 | -23 | Cc1ccc2c(NC(=O)C3CC3)cccc2n1 |
| -0.8 | 9 | COc1ccc(NC(=O)/C=C/c2ccc(OC)c(OC)c2)cn1 |
| 0.7 | / | COc1cc2c(c([N+](=O)[O-])c1)NC(c1ccccc1)CC2c1ccccc1 (configuration not stated) |
| -1.5 | / | CC(C)(C)S(=O)(=O)/C(C#N)=C/c1cc(C(F)(F)F)cc(C(F)(F)F)c1 |
| / | -8 | COC(=O)c1ccc(CSc2nnc3n(Cc4ccc(C)cc4)c(=O)c4ccccc4n23)o1 |
| -2.2 | 17 | COc1ccc(-c2nc3c([nH]2)CCc2nonc2-3)cc1 |
| / | -4 | CN(C)/C=C/C(=O)C(F)(F)F |
| -2.0 | / | CC1CS(=O)(=O)CCN1N=Cc1ccc([N+](=O)[O-])o1 (configuration not stated) |

No new results follow: an excerpt of the list.
| MgrA DNA FP | Sa helicase inh | SMILES |
| --- | --- | --- |
| / | -4 | CN(C)/C=C/C(=O)C(F)(F)F |
| -2.0 | / | CC1CS(=O)(=O)CCN1N=Cc1ccc([N+](=O)[O-])o1 (configuration not stated) |

Structures listed so far with an aryl thioether with sulfur outside any ring (nine):
| MgrA DNA FP | Sa helicase inh | SMILES |
| --- | --- | --- |
| / | 10 | CCCCc1nn2c(=O)cc(CSc3nnc(NC(=O)c4ccco4)s3)nc2s1 |
| / | -1 | O=C(CSc1nnc(-c2ccc3c(=O)n4c(nc3c2)CCCCC4)o1)C12CC3CC(CC(C3)C1)C2 |
| -0.2 | 7 | CC1Cc2ccccc2N1C(=O)CSc1nnc2n1C(C)(C)Cc1ccccc1-2 (configuration not stated) |
| / | -1 | c1ccc(-c2csc3ncnc(Sc4nnnn4-c4ccccc4)c23)cc1 |
| -1.4 | / | Cc1ccc(S(=O)(=O)CCSc2ccccc2)cc1 |
| 2.4 | / | O=[N+]([O-])c1ccc(Sc2ccccc2)c([N+](=O)[O-])c1 |
| / | 20 | CSc1n[nH]c(=O)n1-c1cccc(Cl)c1 |
| -2.1 | 0 | CSc1nc2ccccc2n1-c1ccccc1 |
| / | -8 | COC(=O)c1ccc(CSc2nnc3n(Cc4ccc(C)cc4)c(=O)c4ccccc4n23)o1 |

Other records.
| MgrA DNA FP | Sa helicase inh | SMILES |
| --- | --- | --- |
| -0.2 | 10 | CCN(C(=O)CSc1nc2ccccc2s1)C1CCCCC1 |
| / | -33 | COC(=O)CNC(=O)Cn1cnc2sc(C)c(S(=O)(=O)N3CCC(C)CC3)c2c1=O |
| -1.4 | / | Cc1cccc(N=C(NO)c2ccccc2)c1 |
| -0.7 | 10 | N#C/C(=C(/O)CCl)c1ccccn1 |
| / | -5 | CC(=O)Nc1nc(CC(C)C)cc2c1c(=O)oc1ccccc12 |
| 0.4 | -18 | O=C(Cc1cccc2ccccc12)N1CCN(c2cccc(C(F)(F)F)c2)CC1 |
| / | 4 | Cc1ccc(OCc2nn3c(C(C)(C)C)nnc3s2)cc1 |
| / | 1 | Cc1noc(C)c1CSc1nnc(-c2ccccc2Br)n1Cc1ccccc1 |
| / | -6 | CCn1c(=NC(C)=O)sc2ccccc21 |
| / | 25 | CCC12CN3CC(C)(CN(C1)C31C(=O)Nc3ccc(Br)cc31)C2=O (configuration not stated) |
| 1.0 | -16 | O=c1[nH]c2ccccc2nc1/C=C(\O)c1ccc(C2CCCCC2)cc1 |
| / | 3 | CCOc1ccc(NC(=O)CC2CC(C)(C)OC2=O)cc1 (configuration not stated) |
| -2.4 | 8 | CCOC(=O)C1CNC(=S)NC1(C)O (configuration not stated) |
| / | 11 | Cn1c(COc2ccc3c(c2)OCO3)n[nH]c1=S |
| -1.6 | / | O=C(Nc1ccccc1)OCc1nccn1Cc1ccc(Cl)cc1 |
| -3.0 | / | Cc1nc(CC(=O)O)c(C)s1 |
| / | -19 | O=C(C1CCCN1S(=O)(=O)c1ccc(-c2ccc(=O)[nH]n2)s1)N1CCc2ccccc21 (configuration not stated) |
| / | -120 | CCN1C(=O)/C(=C\c2ccc(N(CC)CC)cc2)SC1=S |
| / | -8 | CC1C/C(=N\NC(=O)c2ccccc2)CC(C)(C)C1 (configuration not stated) |
| / | -13 | O=C(N/N=C/c1ccc(OC(F)F)cc1)C1=COCCO1 |
| / | 13 | O=C(O)c1ccc(-c2ccc3c(c2)OCCO3)s1 |
| -0.7 | 10 | Cc1ccc(C(=O)NC(=O)CSc2n[nH]c(N)n2)cc1 |
| / | 35 | Cc1ccc(NC(=O)CC2SC(=NC3(c4c(O)[nH]c(=O)[nH]c4=O)CCCC3)NC2=O)cc1 (configuration not stated) |
| -0.9 | -7 | CCOc1ccc(C(=O)N2CCC(C(N)=O)CC2)cc1 |
